Vaccinia mCherry: vaccinia inhibition (mCherry reporter) | Vaccinia virus mCherry reporter infection, fluorescence; about a quarter of the inactives have no number | Potency, µM (highest dose often 36.5 µM), inactives show at the highest dose activity change, negative = inhibition, usual class: inhibitors | 310,000 tested, 0.63% active | AID 720579; active = well fitted inhibition curve with a large enough effect; inconclusive = small, poorly fitted or top-dose-only effect; inactive = no such curve, though single readings can be large or run the other way; tested in A549 cells; further: nearly all actives have a fitted effect of over 35% in size; inactives centre near -10
Vaccinia Venus: vaccinia inhibition (Venus reporter) | 330,000 tested, 0.46% active | Vaccinia virus Venus reporter expression, fluorescence | Potency, µM (titrated, usually from 36.5 µM), for the others: at the top dose activity change, negative = inhibition, most hits filed as inhibitors; active means well fitted inhibition curve with a large enough effect; inconclusive means small, poorly fitted or top-dose-only effect; inactive means no such curve, though single readings can be large or run the other way; tested in A549 cells; further: nearly all actives have a fitted effect of over 30% in size; inactives centre near -10
Numbers without * were called inactive; i = inactive; ? = inconclusive; · = not tested or not shown; & = joins results of further samples; [ ] = another dose, or the depositor's remark. On the % scale 0 is the no-effect control and ±100 the full control effect; potency means the concentration at half of the fitted maximal effect.

SMILES	Vaccinia mCherry	Vaccinia Venus
O=C1CCCN1CCCNCC(=O)N1c2ccccc2Sc2ccccc21	-17%	2%
CC(C)(C)N(Cc1ccccc1)C(=O)c1ccc(Br)o1	i	-6%
COc1ccc(NS(=O)(=O)c2cccs2)c(OC)c1	·	-7%
CCN(C(=O)c1cc2c(=O)n(CC)c3ccccc3c2s1)c1cccc(C(F)(F)F)c1	-14%	-2%
O=C(COc1ccc(Br)cc1Cl)NC(=S)N1CCc2ccccc21	-4%	-11%
CC(C)CCNC(=O)c1cnc2sc(N3CCCCCC3)nn2c1=O	i	-12%
CC(C)(C)NC(=O)CSc1nc2ccc(NC(=O)CSc3nnc(N)s3)cc2s1	-18%	-11%
O=C(CN1C(=O)C2(SCC(=O)N2c2cccc(Cl)c2)c2ccccc21)NC1CCCCC1 (stereo not drawn)	-9%	-5%
COc1ccc(CNC(=O)c2ccc(-n3ccnc3)c3ccoc23)cc1OC	-12%	-13%
COc1ccc(Br)cc1CN(C)C(C)C(=O)Nc1cc([N+](=O)[O-])ccc1OC (stereo not drawn)	-3%	1%
COc1ccccc1N(C)S(=O)(=O)c1ccc(C(=O)NC2=NCCS2)cc1	i	-19%
Cc1[nH]c2c(Cl)cccc2c(=O)c1CN1CCCC1	-4%	-23%
Nn1c(SCc2nc3ccccn3c2Br)nnc1-c1cccnc1	·	?
NC(=O)CC[C@@H]1NC(=O)[C@@H]2CCCN2C(=O)c2cc([N+](=O)[O-])cc(I)c2NCCCC[C@@H](C(=O)NC(CC(=O)O)C(N)=O)NC1=O (stereo partly drawn)	i	-3%
COc1ccc(C(=O)N2CCN(Cc3ccc4c(c3)OCO4)CC2)cc1[N+](=O)[O-]	-29%	-13%
Cc1cc(-c2ccc(C)c(S(=O)(=O)N3c4ccccc4CC3C)c2)on1 (stereo not drawn)	-11%	?
COc1cc(/C=N/NC(=O)c2cccnc2)ccc1OC(=O)c1ccco1	i	-5%
COc1ccc(NC(=O)C(c2cccc3ccccc23)n2c(=O)c(-c3ccco3)nc3ccccc32)cc1 (stereo not drawn)	-14%	-10%
COc1ccccc1-c1cc2c(c3c1ccn3C)C1CCC2C1 (stereo not drawn)	4%	6%
COc1ccc(CCNC(=O)C2CC3Cn4c(nc5cc6ccccc6cc54)C3N2C)cc1 (stereo not drawn)	i	-19%
O=C(NCC(c1ccco1)N1CCOCC1)c1cccc(Cl)c1 (stereo not drawn)	-18%	-8%
O=C1CCN(C(=O)CNC(=O)Cc2ccccc2)CC1	-12%	-5%
COc1ccccc1NC(=O)/C=C1\SCC(=O)N1C	i	1%
O=c1c2ccsc2ncn1Cc1ccc(Cl)cc1	·	-8%
O=C(CCc1nc(-c2ccccc2)no1)N1CCCC1	·	-12%
COCCN1CN(S(=O)(=O)c2cccc(Cl)c2)c2nc3ccccc3nc21	3%[7.34 µM]	8%[7.34 µM]
COC(=O)c1ccc(NC(=O)CSc2nc3[nH]ncc3c(=O)[nH]2)cc1	i	-5%
CC1=NN(Cc2ccccc2)C(=O)/C1=C\c1ccc(N(C)C)cc1	·	-2%
O=C1CCCc2ccccc2N1Cc1c(Cl)cccc1Cl	·	-12%
COc1cccc(NC(=O)CCNC(=O)Cn2cnc3ccccc3c2=O)c1	1%	8%

Sorted by molar mass (smallest number first): part of the list above
SMILES	Vaccinia mCherry	Vaccinia Venus
O=C(CCc1nc(-c2ccccc2)no1)N1CCCC1	·	-12%
O=C1CCN(C(=O)CNC(=O)Cc2ccccc2)CC1	-12%	-5%
O=c1c2ccsc2ncn1Cc1ccc(Cl)cc1	·	-8%
COc1ccccc1NC(=O)/C=C1\SCC(=O)N1C	i	1%
COc1ccccc1-c1cc2c(c3c1ccn3C)C1CCC2C1 (stereo not drawn)	4%	6%
O=C(NCC(c1ccco1)N1CCOCC1)c1cccc(Cl)c1 (stereo not drawn)	-18%	-8%
COC(=O)c1ccc(NC(=O)CSc2nc3[nH]ncc3c(=O)[nH]2)cc1	i	-5%
COc1cc(/C=N/NC(=O)c2cccnc2)ccc1OC(=O)c1ccco1	i	-5%
COc1cccc(NC(=O)CCNC(=O)Cn2cnc3ccccc3c2=O)c1	1%	8%
COc1ccc(C(=O)N2CCN(Cc3ccc4c(c3)OCO4)CC2)cc1[N+](=O)[O-]	-29%	-13%
COCCN1CN(S(=O)(=O)c2cccc(Cl)c2)c2nc3ccccc3nc21	3%[7.34 µM]	8%[7.34 µM]
COc1ccc(CCNC(=O)C2CC3Cn4c(nc5cc6ccccc6cc54)C3N2C)cc1 (stereo not drawn)	i	-19%
COc1ccc(NC(=O)C(c2cccc3ccccc23)n2c(=O)c(-c3ccco3)nc3ccccc32)cc1 (stereo not drawn)	-14%	-10%

(further entries)
SMILES	Vaccinia mCherry	Vaccinia Venus
O=C1C=C(c2ccccc2)C[C@H](c2cccs2)[C@H]1n1nnc([N+](=O)[O-])n1	14µM*	?
Nc1ccc2nc(SCc3cccc(F)c3)sc2c1	?	-8%
O=C(Nc1nnc(C2CC2)s1)c1ccncc1	·	-13%
Cc1cnc(C(=O)OCC(=O)N2CCN(S(=O)(=O)c3ccc(Cl)cc3)CC2)cn1	-7%	-11%
O=C(NC(=S)Nc1ccc(N2CCOCC2)c(Cl)c1)C(c1ccccc1)c1ccccc1	-3%	-26%
O=[N+]([O-])c1ccc(OCc2cccc(COc3ccc([N+](=O)[O-])cc3)n2)cc1	-8%	-6%
CC1=C(C(=O)N2CCCCCC2)CC(CC(=O)NCCc2ccccn2)C(=O)N1Cc1ccc(C(C)(C)C)cc1 (stereo not drawn)	-23%	-10%
Cc1nn2cc(-c3ccc(-c4ccccc4)cc3)nc2s1	·	-14%
S=C(NCc1ccccc1)Nc1ccc(Cl)cc1	-7%	-14%
Cc1noc(C)c1CSc1nnc2sc3ccccc3n12	-7%[1.46 µM]	-18%
O=C(NC1CCCC1)C(c1ccncc1)N(C(=O)c1csnn1)c1ccc(Cl)cc1 (stereo not drawn)	-4%	-5%
CC(C)CN1C(=O)c2ccccc2C1(O)Cc1ccccc1 (stereo not drawn)	-8%	3%
Cc1c(Cl)cccc1NC(=S)N1CCN(C(=O)C2CCCO2)CC1 (stereo not drawn)	-18%	-12%
O=C(CSc1nc2c([nH]c3ccccc32)c(=O)n1-c1ccc(Cl)cc1)NCC1CCCO1 (stereo not drawn)	2%	3%
CCCS(=O)(=O)NCCc1cc2cc(C)c(C)cc2[nH]c1=O	?	-28%
CC1CCc2nc(NC(=O)CSc3nc4ccccc4o3)sc2C1 (stereo not drawn)	-7%	?
COc1cccc(/C=N/NC(=O)c2oc3nc(-c4ccccc4)cc(-c4ccco4)c3c2N)c1	-13%	4%
COc1ccc(CCNC(=O)c2cc(S(=O)(=O)N3CCCCCC3)ccc2OC)cc1OC	0%	-6%
CCOC(=O)N1CCN(C(=O)C[C@@H]2C[C@@]3(C(=O)OC)CC(C)(C)CC=C3N(Cc3ccc4c(c3)OCO4)C2=O)CC1	-22%	-25%
CCOC(=O)C1=C(COc2ccc(C)cc2)NC(=O)NC1c1cc(C)ccc1C (stereo not drawn)	i	-11%
Cc1onc(-c2ccccc2)c1CNS(=O)(=O)c1ccccc1[N+](=O)[O-]	-13%	2%
COc1ccc(CSc2nc(C)cc(C)c2S(C)(=O)=O)cc1	i	-7%
CCOC(=O)c1ccc(-c2ccc(/C=C(\C#N)C(=O)Nc3ccc(C)cc3)o2)cc1	-8%	-5%
COC(=O)C1(C(=O)OC)c2cc3c(cc2CN(S(=O)(=O)c2ccc(C)cc2)C1CC(C)=O)OCO3 (stereo not drawn)	-29%	-18%
COc1ccc(-c2nc(CS(=O)(=O)CC(=O)NCc3cccc(OC)c3OC)c(C)o2)cc1	-1%	-27%
CN1C(=O)C2ON(c3ccccc3)C(c3cccs3)C2C1=O (stereo not drawn)	-9%	-9%
CCN(CC)S(=O)(=O)c1ccc(OCC2CCCCO2)c([N+](=O)[O-])c1 (stereo not drawn)	-16%	-9%
O=C1C(Cc2ccc(F)cc2)SC(=Nc2ccccc2)N1c1ccccc1 (stereo not drawn)	-18%	-15%
COC(=O)C(C(C)C)N(Cc1cc(OC)cc(OC)c1)S(=O)(=O)CCl (stereo not drawn)	?	-12%
NC(=NC1CCCCC1)c1ccc([N+](=O)[O-])cc1	-27%	-17%
Cc1ccc(S(=O)(=O)N(C)c2ccccc2C(=O)Nc2c(F)cccc2F)cc1	-24%	-2%
O=C(NCC(c1ccco1)N1CCCC1)c1cc2cc(Cl)ccc2o1 (stereo not drawn)	-12%	-27%
Cc1ccc2c(=O)cc(C(=O)Nc3sc4c(c3C(=O)NCc3cccnc3)CCCC4)oc2c1	i	1%
Cc1cccc(N2CCN(Cc3cc(=O)n4ccsc4n3)CC2)c1C	·	-14%
COc1ccc(NC(=O)C2Cc3c(-c4cccc(C(N)=O)c4)ccnc3O2)cc1 (stereo not drawn)	-20%	?
Cc1c(Cl)cccc1NC(=O)c1oc2ccc(S(=O)(=O)N3CCCCCC3)cc2c1C	-13%	-17%
NCCc1ccc(O)c(O)c1	-7%&-2%&-5%	-14%&2%&-11%&0%
COc1ccc(NC(=O)CSc2nc(-c3ccc(F)cc3)c3cccc(C)c3n2)cc1	-11%	-18%
S=C(NCCCN1CCN(CCCNC(=S)NC2CCCCC2)CC1)NC1CCCCC1	i	-4%
CCc1nc2cc(C(=O)N(C)CC3COCCO3)cc(NC(=O)c3ccccc3OC)c2n1C (stereo not drawn)	-12%	-5%
COc1ccc2c(c1)OC[C@H]1[C@H]2N2C(=O)c3ccccc3NC(=O)[C@@]2(C)[C@H]1c1ccccc1	?	?
CCOc1cc(/C=C(\C#N)c2nc(-c3cccs3)c(NC(C)=O)s2)ccc1O	?	·
O=C1CCc2cc(NS(=O)(=O)c3ccc(Br)cc3)cc3c2N1CC3	-1%	-10%
O=C(CSc1nc2ccccc2nc1N1CCCCC1)N1CCN(c2ccccc2)CC1	-3%	7%
Cc1ccc(S(=O)(=O)Cn2nnnc2CN(Cc2ccco2)CC2CCCO2)cc1 (stereo not drawn)	-25%	-13%
O=C(C1=C[C@@H](c2ccc(C(F)(F)F)cc2)C[C@@H](OCCCCO)O1)N1CCN(Cc2ccccc2)CC1	i	?
Cc1n[nH]c(=O)c2c(NC(=O)COC(=O)COc3cccc(Br)c3)oc(C)c12	i	-1%
COc1ccc(NC(=O)C2Cc3c(-c4ccccc4)ccnc3O2)cc1OC (stereo not drawn)	?	?
CCS(=O)(=O)c1ccc(O)c(NC(=O)CCCC(=O)O)c1	-14%	-9%
COc1ccc(C(=O)NCCc2csc(-c3ccc(Cl)cc3)n2)cc1	-7%	-1%
The listing continues:
SMILES	Vaccinia mCherry	Vaccinia Venus
Cc1ccc(C)c(Nc2ncnc(N)c2[N+](=O)[O-])c1	-14%	-14%
COc1ccc(-c2cc(C(F)(F)F)n3nc(C(=O)NCCCn4ccnc4)cc3n2)cc1	i	-9%
Cc1nc2c(Br)cc(Br)cc2cc1O	i	-21%
Cc1n[nH]c(=O)nc1N1CCN(c2ccccc2)CC1	·	-15%
CCCCN1CC[C@H]2C=CC[C@@H](C(=O)N3CCN(c4ccccc4)CC3)[C@H]2C1=O	-29%&-8%	-15%&-4%
Cc1ccc(-c2[nH]ncc2/C=N/n2c(C)nc3ccccc3c2=O)cc1	i	-10%
Oc1ccc2ccccc2c1C=Nc1cc(C(F)(F)F)ccc1N1CCCC1	·	-17%
N#Cc1ccc(NC(=O)Nc2ccc(Oc3ccc(NC(=O)Nc4ccc(C#N)cc4)cc3)cc2)cc1	i	-22%
CCOc1ccc(NC(=O)c2ccc(NS(=O)(=O)c3cccs3)cc2)cc1	i	-10%
Cc1ccc(NC(=O)C(C)SCc2nc3sc(C)c(C)c3c(=O)[nH]2)nc1 (stereo not drawn)	i	-3%
CCCCc1c(-c2ccccc2OC)ncn1Cc1ccc(Cl)cc1	-18%	-8%
FC(F)Oc1ccc(-n2cc(-c3ccc(Cl)cc3)[n+]3c2CCCCC3)cc1	i	-14%
CCCOc1ccc(/C=N/Nc2cccc([N+](=O)[O-])c2)c(O)c1	?	?
CCCCCCC(Cl)(Cn1ccnc1)c1ccccc1 (stereo not drawn)	-18%	-15%
O=c1oc2ccccc2c(Nc2cccc3ccccc23)c1[N+](=O)[O-]	-16%	-27%
Cc1nn(-c2ccccn2)c2c1-c1nc(N)sc1CC2	20%	2%
O=C(Nc1ccccc1-c1ccccc1NC(=O)c1ccco1)c1ccco1	·	?
CC(=O)N1c2ccc(S(=O)(=O)NCC3CCC(C(=O)NC4CCC(C)CC4)CC3)cc2CC1C (stereo not drawn)	-5%	-25%
CN(CCc1ccccn1)C(=O)c1cc(COc2ccc(F)cc2F)on1	-1%	-16%
Cc1cnc(C(=O)OCC(=O)Nc2cc(S(=O)(=O)N3CCCCC3)ccc2Cl)cn1	i	-12%
CCC(C(=O)NC1CCCC1)N(C(=O)Cn1nnc(-c2ccc(C)o2)n1)c1ccc(F)cc1 (stereo not drawn)	-15%	-2%
Cc1ccc(CN2CCC(CNC(=O)c3cc4ccc5cccnc5c4[nH]3)CC2)cc1	?	?
Cc1cn(CC(=O)NCC2CCCO2)c(=O)[nH]c1=O (stereo not drawn)	-18%	-15%
CCOC(=O)c1sc(NC(=O)c2cccc(S(=O)(=O)N3CCN(C)CC3)c2)cc1C	?	-20%
COC(=O)C1CCN(S(=O)(=O)Cc2ccccc2)CC1	-14%	-1%
Cc1ccc2[nH]c(=O)c(CN(Cc3cccs3)C(=S)NCc3ccco3)cc2c1	-21%	-21%
Cc1cccc(S(=O)(=O)Nc2ccc(-n3c(C)nc4ccccc4c3=O)cc2)c1	-21%	-10%

Screening data as filed in PubChem.
